# RanGTP-Impb inh – disruptors of Ran-importin-beta complex formation – biochemical, FRET, CFP-Ran, YFP-importin-beta, homogeneous, primary screen; inhibition, % (no concentration beside the values); actives 1.1% (n = 300,000); cell-free CFP-Ran/YFP-importin-beta FRET ratio;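 active = most replicates above 15%; inconclusive = exactly half above 15%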;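 note: 0% = DMSO wells and 100% = Ran loaded with GDP instead of GTP; wells of about 40 µL received 100 nL stock; the first replicate is given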
# Calb FLC – C. albicans growth modulation with fluconazole; C. albicans CaCi-2 (fluconazole-resistant clinical isolate) + fluconazole, Alamar Blue growth, 48 h; growth inhibition, % (no concentration beside the values); actives 0.57% (n = 300,000);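 active = most replicates above 75%; inconclusive = exactly half above 75%; inactive = most below 75%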;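 note: all wells also contain fluconazole at 8 µg/ml as a sub-toxic cotreatment; 0% = median of DMSO wells and 100% = median of geldanamycin control wells; wells of about 8 µL received 7.5 nL stock; the first replicate is given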
# Beta apoptosis – blocks beta cell apoptosis | INS-1E cytokine-induced death, ATP luminescence, 48 h; percent of positive-control rescue, neutral wells zero | protection from apoptosis, % (test concentration not listed) | actives 0.8% (n = 300,000) | AID 435005;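 active = all replicates at 75% or more, or half of them and the mean; inconclusive = half reach 75% but not the mean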;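 note: 0% = cytokine-treated negative control wells and 100% = positive control rescue; higher means more ATP so stronger rescue from cytokine killing; wells of about 40 µL received 100 nL stock; the first replicate is given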
# ALR inh – inhibitors of human sulfhydryl oxidase ALR; P55789; purified ALR, DTT oxidation, H2O2 HRP-luminol luminescence; inhibition, % (concentration not given with the values); actives 3.8% (n = 290,000);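 active = mean and each replicate at 75% or more; inconclusive = only one of the two met; inactive = neither met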;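 note: stock transfer was 7.5 nL into about 7.5 µL; 0% = neutral wells and 100% = wells with inactivated enzyme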
# Target sequence (P55789 whole entry, looked up): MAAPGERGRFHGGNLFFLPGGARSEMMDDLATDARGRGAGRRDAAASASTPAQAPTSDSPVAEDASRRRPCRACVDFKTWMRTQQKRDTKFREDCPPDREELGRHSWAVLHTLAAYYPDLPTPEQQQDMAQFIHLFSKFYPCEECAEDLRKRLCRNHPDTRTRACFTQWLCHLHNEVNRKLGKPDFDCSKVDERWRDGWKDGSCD
# rRNA inh HTS – selective bacterial rRNA inhibition in E. coli | E. coli WT GFP vs humanized-ribosome RFP mutants, fluorescence, 24 h; active compounds read low; DMSO median 0, no signal -100 | GFP signal change (wild-type ribosome), % (concentration not given with the values) | actives 1.6% (n = 350,000) | AID 720706;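 active = significant combined selectivity score with lowered wild-type GFP, culture density cut under 30%, mutant RFP and density less affected; inactive = any of these conditions unmet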; note: one replicate is shown; some compounds called inactive have numbers as strong as hits
# FGF22 binding – binders of recombinant human FGF22 by thermal shift; SYPRO orange fluorescence; percent of sucrose octasulfate shift, DMSO zero; calls only at 9.99 µM; actives 1.5% (n = 340,000);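 active = melting point raised past a set limit in the mean and every replicate; inconclusive = no clear call; three in four hits are not shown here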
# Target sequence (Q9HCT0 whole entry, looked up): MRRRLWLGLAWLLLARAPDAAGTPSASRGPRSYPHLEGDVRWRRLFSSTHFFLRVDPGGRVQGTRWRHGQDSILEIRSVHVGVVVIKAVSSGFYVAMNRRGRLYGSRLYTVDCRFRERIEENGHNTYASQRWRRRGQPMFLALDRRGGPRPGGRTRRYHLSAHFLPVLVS
# AF4-AF9 inh – inhibitors of human MLL-AF4/AF9 interaction; actives 0.47% (n = 350,000); P42568; inhibition, % at 10 µM; AlphaScreen, biotin-AF4 peptide binding to FLAG-AF9;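 active = every replicate reaching a set inhibition limit, whatever the replicate mean, cut at about 25% in these data; inconclusive = mean inhibition reaches that limit but some replicates miss it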;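 note: 0% = plate neutral control median and 100% = total signal loss; the record names both 10 and 1 µM as test concentration; the first replicate is given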
# Target sequence (P42568 whole entry, looked up): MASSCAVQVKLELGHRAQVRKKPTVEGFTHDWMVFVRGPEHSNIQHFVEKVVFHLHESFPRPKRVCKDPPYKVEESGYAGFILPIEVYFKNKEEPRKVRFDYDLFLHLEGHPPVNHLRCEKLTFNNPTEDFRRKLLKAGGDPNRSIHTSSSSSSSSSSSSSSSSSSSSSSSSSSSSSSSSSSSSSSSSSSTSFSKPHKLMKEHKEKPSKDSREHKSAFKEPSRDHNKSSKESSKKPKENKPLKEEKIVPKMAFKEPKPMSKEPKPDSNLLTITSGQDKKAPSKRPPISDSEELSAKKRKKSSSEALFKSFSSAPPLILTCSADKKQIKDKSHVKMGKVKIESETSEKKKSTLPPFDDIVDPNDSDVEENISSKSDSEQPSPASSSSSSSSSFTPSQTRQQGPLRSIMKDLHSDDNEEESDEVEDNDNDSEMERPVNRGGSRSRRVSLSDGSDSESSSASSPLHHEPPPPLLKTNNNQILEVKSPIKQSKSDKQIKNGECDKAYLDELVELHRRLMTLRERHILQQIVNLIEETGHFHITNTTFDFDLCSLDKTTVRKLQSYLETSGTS
# T cruzi inh – T. cruzi replication inhibition; T. cruzi beta-gal in NIH3T3, luminescence, 90 h; inhibition, % (concentration not given with the values); actives 1.4% (n = 300,000);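 active = mean inhibition across valid replicates above about 55%, limit read from the data; inconclusive = mean below that limit but half or more replicates reach it; inactive = mean below it, under half of replicates reach it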;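 note: signal also drops with host cell toxicity which is not excluded here; 0% = plate median of DMSO wells and 100% = zero luminescence signal; higher percent means less beta-gal luminescence so fewer parasites; stock transfer was 50 nL into about 50 µL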
# rRNA inh HTS OD600 – second read-out of rRNA inh HTS, no call of its own (marks repeat the call); OD600 change, %; measured here: OD600 growth;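 optical density of the mix in the first replicate; 0 = DMSO median and -100 = no signal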
# rRNA inh HTS RFP – further read-out of rRNA inh HTS, marked with its call; RFP signal change, %; measured here: RFP humanized mutant strains;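 first replicate; 0 = DMSO median and -100 = no signal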
# * marks the source's active call; other numbers are inactive results; i = inactive; u = inconclusive; x = no result given; + = active, no number. The list is partial; the hit share may differ from the screen's.
SMILES,RanGTP-Impb inh,Calb FLC,Beta apoptosis,ALR inh,rRNA inh HTS,rRNA inh HTS OD600,rRNA inh HTS RFP,FGF22 binding,AF4-AF9 inh,T cruzi inh
COc1ccccc1NC(=O)NC1(C)CCS(=O)(=O)C1 (stereo not drawn),9.2,5,x,x,5,13,-3.0,i,-0.1,-7
CCCn1c(NC(=O)C2CCN(C(=O)c3ccc(F)cc3)CC2)nc2ccccc21,3.2,3,11,-6,-42,-61,-3.7,i,3.0,5
COc1ccc(-c2nc(C#N)c(N3CCCCCC3)o2)cc1,-0.8,40,4,1,x,x,x,x,x,33
CN(CC(=O)Nc1ccccc1C(F)(F)F)C(=O)c1ccc(N2C(=O)CCC2=O)cc1,-2.6,4,-3,-11,0,5,-4.4,i,-17,-11
COC(CNC(=O)C1CCN(S(=O)(=O)c2cccc3nsnc23)CC1)OC,9.6,20,1,-8,7,4,-3.1,i,-0.8,-6
O=C1c2ccccc2C(=O)N1CCCP(=O)(O)CCc1ccccc1,2.2,20,-5,3,x,x,x,x,x,-1
Cc1ccc(/C=C2\SC(=S)N(CC(=O)Nc3cccnc3)C2=O)cc1,5.3,-1,-1,-6,6,11,1.2,i,-1.0,-4
O=C(CCc1ccccc1)NCc1ccccn1,4.3,12,-10,2,x,x,x,x,x,5
CCN(CC)CCCNCC(=O)Nc1cc(C)on1,2.7,0,-2,x,21,28,0.9,i,-0.9,4
COc1ccccc1CC(=O)Nc1ccc(NC(=O)c2cccs2)cc1,1.8,0,4,-6,1,4,-2.5,i,0.1,5
O=[N+]([O-])c1ccc2nc(-c3ccccc3)[nH]c2c1,u,3,11,-8,15,19,-4.6,+,5.8,-6
N#C/C(=C/c1cn[nH]c1-c1ccc(Br)cc1)C(=O)O,-2.4,0,-3,72,8,-4,-1.2,i,2.8,-10
CCOC(=O)c1ccc(S(=O)(=O)Nc2cc(C(=O)O)ccc2Cl)cc1,-0.3,3,-7,99*,-20,-17,-1.8,+,-2.7,-5
C[C@@H](C(=O)Nc1ccc2ccccc2c1)[C@@H]1C[C@@]1(C)[C@@H](NC(=O)c1ccccc1)c1ccccc1,-1.6,5,19,-1,-5,-2,-3.0,i,-0.3,22
S=C(c1cn(CCOc2cccc3ccccc23)c2ccccc12)N1CCCC1,8.5,-3,105*,-4,x,x,x,x,x,40
O=C(c1ccccc1)N1CCC(c2nc3c(nnn3Cc3ccccc3Cl)c(=O)[nH]2)CC1,-0.4,-7,x,-4,-13,-15,2.7,i,-37,5
O=[N+]([O-])c1ccc(O)c(-c2cc(C(F)(F)F)nc(-c3ccccc3)n2)c1,4.2,4,119*,1,-28,-31,-10,i,-0.3,20
CCCCC(=O)Nc1c(-c2cccc(OC)c2)c(=O)c2ccccc2n1C,3.2,4,2,-43,8,14,1.0,i,-2.2,-4
COc1ccc(-c2cc(C(=O)N3CCN(Cc4ccc5c(c4)OCO5)CC3)on2)cc1OC,-1.6,-1,-3,-4,-30*,-22*,4.7*,i,6.3,-13
Cn1c(O)c(N=NC(=O)CNC(=O)c2ccccc2)c2ccccc21,0.5,-1,1,-2,-4,-3,-0.4,i,2.5,10
CCOC(=O)c1cnc(-n2nc(C)cc2C)nc1Nc1cccc(C(=O)O)c1,-0.3,46,-4,-6,x,x,x,x,x,12
CC(=O)N1CCN(C(=O)c2ccc(Cl)c(S(=O)(=O)N3CCCCCC3)c2)CC1,x,x,-2,-5,3,12,-0.2,i,-14,x
O=C(CSc1nnc(-c2ccc3c(c2)OCO3)o1)Nc1c(F)cccc1F,x,x,2,-2,0,-6,1.3,i,-1.0,x
COc1cc(NC(=O)CN2C(=O)NC(c3ccccc3)(c3ccccc3)C2=O)cc(OC)c1,5.3,10,-4,-4,-8,-4,1.7,i,0.0,11
Cc1cc(C)n2nc(SCC(=O)N3CCCC3)nc2n1,x,x,-5,5,5,7,-0.7,i,-0.1,x
CCC(C)N(C(=O)COC(=O)c1ccccc1SCC(=O)N1CCCC1)C1CCS(=O)(=O)C1 (stereo not drawn),2.3,5,-5,5,12,13,4.0,i,-2.5,-2
CC(CN1CCOCC1)c1ccccc1 (stereo not drawn),3.0,-1,-8,0,13,5,-4.7,i,5.4,-8
O=c1c2ccccc2[nH]c(=S)n1CCCN1CCN(c2ccccc2F)CC1,-2.3,3,5,-3,-2,2,-6.2,i,0.5,26
O=C(OCC(=O)N1CCN(S(=O)(=O)c2ccccc2)CC1)C1CCC1,x,x,-8,-2,x,x,x,i,3.9,x
O=C(Cc1ccc(-n2c(=O)[nH]c3ccsc3c2=O)cc1)NCc1cccnc1,-1.6,-2,-10,1,x,x,x,x,x,-9

# Three compounds from above, sorted by their value in rRNA inh HTS OD600, rising:
SMILES	RanGTP-Impb inh	ALR inh	rRNA inh HTS	rRNA inh HTS OD600	rRNA inh HTS RFP	FGF22 binding	AF4-AF9 inh
O=[N+]([O-])c1ccc(O)c(-c2cc(C(F)(F)F)nc(-c3ccccc3)n2)c1	4.2	1	-28	-31	-10	i	-0.3
CC(CN1CCOCC1)c1ccccc1 (stereo not drawn)	3.0	0	13	5	-4.7	i	5.4
CCC(C)N(C(=O)COC(=O)c1ccccc1SCC(=O)N1CCCC1)C1CCS(=O)(=O)C1 (stereo not drawn)	2.3	5	12	13	4.0	i	-2.5

# Next part.
SMILES,RanGTP-Impb inh,Calb FLC,Beta apoptosis,ALR inh,rRNA inh HTS,rRNA inh HTS OD600,rRNA inh HTS RFP,FGF22 binding,AF4-AF9 inh,T cruzi inh
COc1ccc(CC(=O)N2CCN(C(=O)c3ccco3)CC2)cc1,-0.7,22,1,-1,3,5,3.4,i,-0.1,2
CC(C)CNC(=O)COC(=O)CNC(=O)c1cc(Cl)cc([N+](=O)[O-])c1,1.4,-19,0,x,9,10,8.2,x,-1.9,0
COc1ccc(NC(C)=O)cc1S(=O)(=O)Nc1ccc(S(=O)(=O)N2CCCCC2)cc1,x,x,-7,-13,6,2,4.1,i,-0.9,x
COc1ccc(CCn2c(-c3ccco3)nc3ccccc3c2=O)cc1OC,0.6,3,-5,-3,x,x,x,x,x,26
CCOc1ccc(CCNC(=O)COC(=O)c2nc(Cl)ccc2Cl)cc1OCC,-3.5,-4,-7,-2,-3,-2,-1.4,i,0.5,-1
Cc1nnc(SCC(=O)Nc2ccc3c(c2)OCCO3)n1CC1CCCO1 (stereo not drawn),-2.4,2,0,0,x,x,x,x,x,2
O=C(CCN1CCN(C/C=C/c2ccccc2)CC1)Nc1ccc(Cl)cc1,1.4,-12,-1,-23,-1,-2,0.2,i,-1.5,50
COc1ccc(NC(=O)Cc2csc(NC(=O)Nc3ccccc3OC)n2)c(OC)c1,-4.9,-1,x,-6,-35,-36,-5.4,i,3.8,2
CC1CN(S(=O)(=O)c2cccs2)CC(C)O1 (stereo not drawn),x,x,0,-16,6,3,-4.6,i,-7.5,x
Nc1[nH][nH]c(=O)c1N=Nc1ccc2c(c1)OCO2,3.0,-10,1,-41,-4,-3,-2.7,x,1.1,6
COCCCNC(=O)CCn1c(=O)c2ccccc2n(CC(=O)NCCC2=CCCCC2)c1=O,5.0,3,-7,x,8,6,11,i,0.6,-1
Cc1c(C(=O)N2CCCCC2)c(S(=O)(=O)NCc2ccc(F)cc2)c(C)n1C,4.0,-7,x,-4,10,16,1.4,i,1.4,5
O=C(CC1CCCC1)Nc1ccc2c(c1)CCC2,-4.0,-4,-4,-4,x,x,x,x,x,-4
O=C(CNC(=O)c1ccccc1)N/N=C/c1cc(Br)ccc1O,3.8,3,75,-2,7,6,8.4,i,-14,-2
COc1ccc(C(=O)NC2CCN(Cc3c(F)cccc3Cl)CC2)cc1OC,-0.2,-6,-4,-7,1,10,1.5,i,-0.2,5
N=C(c1ccc([N+](=O)[O-])cc1)N1CCCCCC1,-0.5,3,-7,x,16,13,1.4,i,0.7,-14
CCC(C(=O)Nc1sc(C(N)=O)c(C)c1C(=O)OC)c1ccccc1 (stereo not drawn),x,15,-3,x,-5,-5,-6.6,i,-3.1,x
CCCCCCCN1C(Nc2ccccc2)=NC[C@@H]1Cc1ccccc1,-3.0,84*,25,-1,-57,-81,-25,i,4.8,u
CCOC(=O)N1CCc2c(sc3c2c(=O)n(Cc2ccccc2)c(=O)n3Cc2ccccc2F)C1,u,-8,28,-1,4,16,0.2,i,-22,47
CCOC(=O)C1CCN(CCCSc2ccc(Cl)cc2)CC1,0.5,-9,-2,0,13,4,0.7,i,4.9,24
CCOc1ccc(N(C(C)C(=O)NC2CCCCCC2)S(C)(=O)=O)cc1 (stereo not drawn),u,-14,-4,-3,x,x,x,x,x,-2
O=C(CCCN1C(=O)c2cccc3cccc(c23)C1=O)N1CCN(c2ccc(F)cc2)CC1,u,6,7,-13,-27,-38,29,x,12,15
COn1c(=O)c(-c2ccc(F)cc2)[n+]([O-])c2ccccc21,3.8,0,-10,-16,4,7,0.0,i,-2.1,-10
Cc1ccc2oc(C(=O)N(CCO)Cc3ccccc3)c(C)c2c1,5.3,10,x,2,-17*,-11*,6.2*,i,-24,0
CC1CCCN(C(=O)CSc2nnc3n(C4CCCC4)c(=O)c4ccccc4n23)C1 (stereo not drawn),4.6,-7,1,-5,x,x,x,x,x,12
COc1ccc(NC(=O)c2cc(OC)c(OC)c(OC)c2Br)cc1OC,u,-4,-6,-13,x,x,x,x,x,-14
COc1cc(CNCCc2ccccc2F)ccc1OCC(=O)N1CCCCC1,-0.1,-30,-1,19,18,15,7.1,i,-1.4,62*
O=C(COC(=O)c1cnccn1)NCc1ccc2c(c1)OCO2,-0.8,-1,-4,-2,6,10,-2.2,i,-2.3,-17
COC(=O)Cn1nc(-c2ccccc2)n(-c2ccccc2)c1=S,1.7,0,-1,5,x,x,x,x,x,-5
CCCc1cc(=O)[nH]c(SCC(=O)NC2CCCc3ccccc32)n1 (stereo not drawn),0.2,-7,-5,9,7,1,7.6,i,-13,6
O=S(=O)(Cc1ccccc1)c1cnc2ccccc2n1,-0.1,-5,-15,x,x,x,x,x,x,-23
O=S(=O)(c1ccc(F)c(F)c1)N1CCC2(CC1)OCCO2,-0.6,-7,4,-6,2,6,1.2,i,-1.3,11
C=CCc1c(C)nc(-c2ccccc2)nc1Nc1ccccc1O,-5.5,-8,10,-1,-10,-11,-5.9,i,-0.3,0
Cc1ccc(Cn2nnnc2CN2CCC(NC(=O)c3ccc(Br)cc3)CC2)cc1,-2.3,11,-1,5,x,x,x,x,x,13
Cn1c(=O)[nH]c(=O)c2[nH]c(NCCCN3CCOCC3)nc21,-2.4,0,-1,0,x,x,x,x,x,0
Cc1ccc(CN2CC(C(=O)N(C)CC(=O)Nc3cccc(F)c3)CC2=O)cc1 (stereo not drawn),-1.9,6,-5,-5,5,9,1.4,i,-11,4
CCCC(=O)Nc1ccc(C(=O)NCCc2ccc(F)cc2)cc1,4.7,-5,x,-4,x,x,x,x,x,-27
COc1ccc2nc(SCC(=O)Nc3ccc(S(=O)(=O)N4CCCC4)cc3)c(C#N)cc2c1,8.6,-1,16,-7,x,x,x,x,x,28
CN(CC(=O)N1CCN(c2ccc(F)cc2)CC1)S(=O)(=O)c1ccc(F)cc1,-4.8,4,-4,42,x,x,x,x,x,2
